Screens: PubChem, National Center for Advancing Translational Sciences (NCATS)
PINK1 modulator = changes PINK1 expression; PINK1 immunofluorescence, high-content cytometry, 24 h; actives 0.2% (n = 410,000); AID 624263; Potency, µM (doses to about 76.6 µM), for inactives: at the highest dose activation (PINK1 increase), most hits filed as activators; active = well fitted activation curve with a large enough effect; inconclusive = small, poorly fitted or top-dose-only effect; inactive = flat fitted curve, though single readings scatter; cell line not stated here;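 also: potency is read from the fitted curve at half-maximal effect; % of control where 0% means no effect; nearly all actives have a fitted effect of over 65% in size; a mitochondrial uncoupler was the plate control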
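Compound titrations (5 concentrations, 24 h) on a stable cell line; DMSO and CCCP controls. Endpoint: fixed-cell PINK1 immunofluorescence with mitochondrial, cell and nuclear markers, scanned by microplate cytometer.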
CtBP-E1A blk = CtBP/E1A binding inhibition | AlphaScreen GST-E1A/His-CtBP binding, 1536-well; active compounds read low; control for the full effect not named in the record | activity change, % (no concentration beside the values) | actives 0.49% (n = 340,000) | AID 651724; in the data active means activity change below about -65%; inconclusive means about -30% to -65%; inactive means above about -30%; also: % is scaled to controls: 0 for no effect and ±100 for the full control effect
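Homogeneous bead-based format: GST-tagged E1A captured on glutathione donor beads, His-tagged CtBP on nickel acceptor beads; compounds precede bead addition by 2 h at 37 °C.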
Six1-Eya2 blk = Six1/Eya2 interaction inhibition | AlphaScreen GST-Six1/His-Eya2 binding, biochemical; active compounds read low; control for the full effect not named in the record | AID 651725 | Q15475+O00167 | actives 0.56% (n = 360,000) | activity change, % (concentration not given with the values); in the data active = activity change below about -65%; inconclusive = about -30% to -65%; inactive = above about -30%; also: % is scaled to controls: 0 for no effect and ±100 for the full control effect
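GST-Six1 + His-Eya2 (5X stock: 250/500 nM); Tris pH 8.0, 300 mM NaCl, 0.05% BSA, 0.02% Tween 20; GSH donor/Ni acceptor beads; 1 h 37 °C dark; AlphaScreen readout.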
D2 potentiator = potentiates the human D2 dopamine receptor allosterically. P14416. DiscoveRx D2 beta-arrestin cells, luminescence, 90 min; 100% = 57 uM dopamine signal. potentiation, % (concentration not given with the values). actives 0.23% (n = 360,000). AID 624464; active = potentiation of 50% or more; inconclusive = 30% to 50%; inactive = 30% or less;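 also: compound concentration not given in the record; tested on top of an EC20 dose of dopamine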
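D2 cells co-treated with compound plus 50 nM dopamine (EC20) for 90 min at 37 deg C to detect potentiation. Beta-arrestin recruitment was read as enzyme-fragment luminescence after 1 h at ambient temperature. Full response was set by 57 uM dopamine.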
TRPV1 PAM = enhances activation of the human vanilloid receptor TRPV1 | Q8NER1 | actives 0.02% (n = 320,000) | TRPV1-expressing cells, Fluo-8 calcium influx, capsaicin EC20 potentiation; host cell line not named in the record; control for the full effect not named in the record | potentiation, % at 8.33 µM; active means potentiation above 80%; inconclusive means 30% to 80%; inactive means below 30%; also: 0% is about no effect
Target sequence (Q8NER1 whole entry, looked up): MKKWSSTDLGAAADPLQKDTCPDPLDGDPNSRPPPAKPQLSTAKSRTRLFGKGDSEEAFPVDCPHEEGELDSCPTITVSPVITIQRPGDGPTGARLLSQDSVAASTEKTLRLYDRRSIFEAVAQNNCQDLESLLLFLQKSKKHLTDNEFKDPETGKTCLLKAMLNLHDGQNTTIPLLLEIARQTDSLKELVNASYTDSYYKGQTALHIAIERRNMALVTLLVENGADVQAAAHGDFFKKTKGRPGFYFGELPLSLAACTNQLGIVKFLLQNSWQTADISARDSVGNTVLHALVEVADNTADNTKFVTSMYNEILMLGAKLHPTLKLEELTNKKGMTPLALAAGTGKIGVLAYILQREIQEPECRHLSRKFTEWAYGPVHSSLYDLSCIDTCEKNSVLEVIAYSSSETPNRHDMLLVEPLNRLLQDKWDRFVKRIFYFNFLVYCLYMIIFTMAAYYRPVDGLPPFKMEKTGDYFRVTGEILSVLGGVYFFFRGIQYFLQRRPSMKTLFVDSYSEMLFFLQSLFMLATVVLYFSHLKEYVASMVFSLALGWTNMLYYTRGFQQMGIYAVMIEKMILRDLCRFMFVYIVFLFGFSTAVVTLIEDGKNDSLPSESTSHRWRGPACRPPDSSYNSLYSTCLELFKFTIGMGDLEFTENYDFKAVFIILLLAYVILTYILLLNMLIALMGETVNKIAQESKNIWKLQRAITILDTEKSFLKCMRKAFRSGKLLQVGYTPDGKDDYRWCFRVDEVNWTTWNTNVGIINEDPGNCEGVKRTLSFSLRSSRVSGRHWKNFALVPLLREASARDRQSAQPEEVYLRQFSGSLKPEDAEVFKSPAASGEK
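Fluo-8 calcium influx in TRPV1-expressing cells, kinetic read (ex 480/em 520 nm). Compound added and read 3 min for agonist activity, followed by capsaicin at EC20 final and 2 min further read for enhancement.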
Sfp inh = Sfp phosphopantetheinyl transferase inhibition. Q9F4F7. Biochemical Sfp PPTase activity, qHTS. Potency, µM, for the others: max response, negative = inhibition, hits mostly inhibitors. actives 3.5% (n = 310,000). AID 1490; active = well fitted inhibition curve with a large enough effect; inconclusive = small, poorly fitted or top-dose-only effect, or another doubt; inactive = no such curve, though single readings can be large or run the other way;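 also: the enzyme is Sfp with the accession as filed and its product quenches rhodamine fluorescence; potency is read from the fitted curve at half-maximal effect; 0% = enzyme reaction without inhibitor and -100% = no enzyme wells; top concentration of the series not given in the record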
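After 15 min at room temperature with compound, 15 nM Sfp received 5 uM rhodamine-CoA plus 12.5 uM BHQ-2-ybbR (50 mM Hepes pH 7.6, 10 mM MgCl2). Rate came from the fluorescence difference over 30 min, ex 525/em 598 nm.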
D2 ag = agonists of human D2 dopamine receptor (beta-arrestin). DiscoveRx PathHunter D2 beta-arrestin, luminescence, 90 min; 100% = 57 uM dopamine signal. activation, % (no concentration beside the values). actives 0.084% (n = 360,000). AID 624465; in the data active = activation above about 40%; inconclusive = about 15% to 40%; inactive = below about 15%; also: compound concentration not given in the record; the text of the record calls up to 30% inactive
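Agonist mode: compounds alone added to overnight-plated D2 PathHunter cells for 90 min at 37 C, with 57 uM final dopamine (EC100) defining full response. Beta-arrestin recruitment detected by chemiluminescent reagent, read after 1 h at ambient temperature.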
* marks the source's active call; other numbers are inactive results; ? = inconclusive; · = not tested or not shown; & = joins results of further samples; [ ] = dose if it differs, or a comment.

Results follow in this order: PINK1 modulator	CtBP-E1A blk	Six1-Eya2 blk	D2 potentiator	TRPV1 PAM	Sfp inh	D2 ag
COC(=O)c1ccccc1NC(=O)C1CC(=O)N(c2ccccc2)C1 (stereo unspecified)
  ?	3	4	1	-14	10%	-0.7
CC(C)CCN1CCN(Cc2ccc(C#CCCO)cc2)CC1CCO (stereo unspecified)
  -0.8%	6	6	-10	-3	12%	-3.2
CC1=C(C#N)C2(O)C(=O)c3ccccc3C2(O)N1 (stereo unspecified)
  -0.8%	1	7	-4	-3	19%	-0.3
O=C1c2ccccc2-c2nc3ccccc3cc21
  0.1%	?	?	-27	5	13%	-12
Cc1ccc(C)c(C(O)c2ncc(-c3cccc(C(F)(F)F)c3)[nH]2)c1 (stereo unspecified)
  ?	-3	-16	-13	·	·	4.8
C=CCc1ccccc1OCCn1ccnc1
  -2.0%	0	22	-4	-1	-5%	-2.0
CCCC(=O)NC(c1ccco1)c1cc([N+](=O)[O-])c2cccnc2c1O (stereo unspecified)
  0.4%	·	-92*	-6	-5	14µM*	5.8
Cc1ccccc1NC(=S)NCCc1c[nH]c2ccccc12
  1.5%	-11	-17	3	-9	1%	-11
NC(=O)c1nccc2ccccc12
  1.0%	0	-5	-14	·	·	-1.9
CCN(CC(=O)Nc1ccccc1OC)C(=O)c1ccc(NC(=O)c2cccs2)cc1
  2.0%	·	-1	2	-25	·	4.1
C[C@H](CO)N1C[C@H](C)[C@@H](CN(C)C(=O)Nc2ccccc2)Oc2ccc(NC(=O)Cn3cnnn3)cc2C1=O
  0.2%	-7	-4	·	·	·	1.0
COc1ccc(CCNC(=O)CCCOc2ccc(C)cc2)cc1OC
  0.2%	2	4	-11	-43	-9%	-1.0
c1cnc(N2CCN(Cc3ccc4c(c3)OCO4)CC2)cn1
  -1.9%	-5	-11	?	-1	19%	44*
O=C(O)Cc1ccc(O)cc1
  3.6%	7	5	2	·	·	-0.9
CCOc1cc(CN2CCCCCC2)ccc1OC
  -0.1%	-4	23	-5	-27	-7%	-6.6
O=C1CCCC(O)=C1N=Nc1ccc2ncsc2c1
  -1.2%	-4	-17	-15	10	-82%	-0.9
COc1ccc(S(=O)(=O)N2CCCN(Cc3cccc(F)c3)CC2)cc1
  -0.5%	-4	-3	-12	·	7%	-2.3
CC(NC(=O)OC1CCCCC1)N1C(=O)C2C3C=CC(C3)C2C1=O (stereo unspecified)
  -0.6%	12	4	-4	-23	4%	-5.0
Cc1cc(C)n(C2CCCCC2OC(=O)CCc2ccccc2)n1 (stereo unspecified)
  2.2%	11	-13	-3	-3	13%	-2.4
CCOC(=O)C1CCCN(C(=O)COC(=O)C2=COCCO2)C1 (stereo unspecified)
  -1.7%	13	7	-19	13	-3%	-6.0
CN(C)S(=O)(=O)c1ccc(C(=O)Nc2ccnn2C2CCCCC2)cc1
  -0.1%	3	0	2	-4	12%	-0.6
CN(C(=O)c1ccc2c(c1)S(=O)(=O)N=C1CCCCCN12)c1ccccc1
  -0.5%	0	-1	10	-4	·	-4.3
CC(C(O)c1ccc(O)cc1)N1CCC(Cc2ccccc2)CC1 (stereo unspecified)
  1.1%&0.1%&-0.6%	-3&5&-9	-2&0&-2	-34&-36&-27	2&-4	1%&-16%&19%&15%	-2.9&-7.1&3.9
COc1cc(/C=C/C(=O)c2ccc3c(c2)OCCO3)cc(OC)c1OC
  2.3%	0	-5	0	13	-11%	-2.2
CCC1CCCCN1CCCNC(=O)c1cc2c(=O)oc3ccc(C)cc3c2s1 (stereo unspecified)
  -0.2%	-10	-5	-24	?	-3%	3.2
O=C(Cc1ccc(Cl)cc1)Nc1nc2ccccc2[nH]1
  9.8%	8	5	-1	-1	14%	1.0
O=S(=O)(c1ccc(F)cc1)n1ccc(-c2cnc(-c3ccccc3)s2)n1
  3.0%	5	-1	9	·	6%	-1.6
COCCNC(=O)c1sc2ncn(CC(=O)N3CCCCC3)c(=O)c2c1C
  -1.2%	13	1	15	-1	2%	-2.2
CC1(C)CC(=O)C2=C(C1)C(c1cn(-c3ccccc3)nc1-c1ccccc1)C(C#N)=C(N)O2 (stereo unspecified)
  -0.9%	-4	-9	-16	-11	6%	-2.6
O=c1c(C(c2ccc(F)cc2)c2c(O)nc3n(c2=O)CCCS3)c(O)nc2n1CCCS2
  0.9%	-8	11	-9	10	3%	-4.7

Structures from the list above with a cyano group:
Results follow in this order: PINK1 modulator	CtBP-E1A blk	Six1-Eya2 blk	D2 potentiator	TRPV1 PAM	Sfp inh	D2 ag
CC1=C(C#N)C2(O)C(=O)c3ccccc3C2(O)N1 (stereo unspecified)
  -0.8%	1	7	-4	-3	19%	-0.3
CC1(C)CC(=O)C2=C(C1)C(c1cn(-c3ccccc3)nc1-c1ccccc1)C(C#N)=C(N)O2 (stereo unspecified)
  -0.9%	-4	-9	-16	-11	6%	-2.6

Other records.
Results follow in this order: PINK1 modulator	CtBP-E1A blk	Six1-Eya2 blk	D2 potentiator	TRPV1 PAM	Sfp inh	D2 ag
CCCc1cc(=O)oc2cc(OCC(=O)NC3CCN(Cc4ccccc4)CC3)ccc12
  -0.8%	2	-1	-22	10	15%	-1.6
CC(=O)N1CCN(CC(O)COc2ccc(Br)cc2)CC1 (stereo unspecified)
  0.3%	·	-2	14	25	-22%	-0.9
CO/N=C/C(=N\Nc1ccc(OC)cc1)C(=O)c1ccc(OC)cc1
  1.3%	-10	-4	1	6	?	-2.6
O=C(NCc1cccs1)c1nc(-c2cccs2)no1
  2.2%	·	16	-2	-4	-1%	-4.2
Cc1noc(C(=O)Nc2ccccc2C(F)(F)F)c1Cl
  3.3%[38.3 µM]	3	5	-5	-2	13%	0.6
Cc1ccnc(NC(=O)c2cccc(NC(=O)c3ccc(Cl)c(Cl)c3)c2)c1
  5.1%	2	-3	-4	·	·	-3.5
Cc1ccc(NC(=O)C(C)OC(=O)c2ccc(Cl)nc2)cc1S(=O)(=O)N1CCOCC1 (stereo unspecified)
  -3.2%	7	-8	-21	-7	·	1.2
C[C@@H]1O[C@@H](O[C@H]2[C@H](Oc3cc(O)c4c(c3)OC(c3ccc(O)cc3)CC4=O)O[C@H](CO)[C@@H](O)[C@@H]2O)[C@H](O)[C@H](O)[C@H]1O (stereo partly specified)
  0.9%	-1	-1	-3	2	·	-1.0
Cc1cccc(/C(N)=N/OC(=O)CCC2CCCCC2)c1
  15%	32	26	-7	-7	9%	-5.7
Cc1ccc(NNC(=O)c2c(F)cccc2Cl)cc1C
  -0.7%	-9	-3	-3	-10	-22%	-3.0
Cc1ccc2nc(-c3ccc(NC(=O)COC(=O)c4cncc(Br)c4)cc3)sc2c1
  6.2%	-12	6	-12	13	-10%	-5.5
Clc1nc2ccccc2nc1-c1ccccc1
  11%	12	13	1	?	9%	0.8
Nc1ccccc1SCC(=O)Nc1nccs1
  -0.8%	3	-3	0	6	10%	-3.2
CC(=O)NS(=O)(=O)c1ccc2c(c1)Cc1cc(S(=O)(=O)NC(C)=O)ccc1-2
  3.0%	·	2	-12	9	22%	-2.9
COc1ccccc1NS(=O)(=O)c1ccc(S(=O)(=O)N2CCOCC2)cc1
  1.1%	-3	5	-3	-10	1%	-0.4
Cc1ccc(CNc2ccc(N3CCOCC3)cc2)cc1
  -0.6%	-13	?	10	9	-21%	3.3
C=CCn1c(COc2cccc3ccc(C)nc23)nnc1SCC(=O)OC
  -2.2%	2	2	-9	-15	-9%	-1.3
COc1ccc(OCCN2C(=O)NC(C)(c3ccc(C)cc3)C2=O)cc1 (stereo unspecified)
  0.7%[38.3 µM]	11	2	1	23	8%	0.0
Cc1ccc(O)c(C2=NCCNC(C(F)(F)F)=C2)c1
  -1.8%	-6	-12	-9	-9	7%	-3.2
C#CCOc1nc(Nc2cccc([N+](=O)[O-])c2)nc(OCC#C)n1
  -1.5%	?	?	-5	5	7%	2.9
O=C(NCc1ccco1)/C(=C\c1cccs1)NC(=O)c1cccs1
  -1.0%	-2	4	-5	16	8%	0.8
COC(=O)c1ccccc1SC(CC(=O)c1ccccc1)c1ccc(F)cc1 (stereo unspecified)
  -3.4%	15	22	-16	-16	-3%	-4.2
COC(=O)c1sccc1NC(=O)c1cc(OC)c(OC)c(OC)c1
  ·	7	-3	-19	-2	9%	-2.9
CC(NC(=O)C(NC(=O)C1CCCN1C(=O)OC(C)(C)C)C(C)C)C(N)=O (stereo unspecified)
  -0.2%[38.3 µM]	6	1	-6	?	-11%	-1.3
CCOC(=O)c1ccc(S(=O)(=O)N2CCN(C(=O)c3cc(=O)c4ccccc4o3)CC2)cc1
  -0.6%	-10	8	-6	7	15%	-0.1
CC(=O)c1ccc(N2CCC(c3cc(-c4ccc(Cl)cc4)n[nH]3)CC2)c([N+](=O)[O-])c1
  5.7%	-21	-24	3	3	-9%	4.3
COc1cccc(C(=O)Nc2sc3c(c2C#N)CCN(C(C)=O)C3)c1
  5.7%	·	-3	-6	-8	40µM*	-5.5
Cc1ccccc1CC(=O)NC1CCCc2ccccc21 (stereo unspecified)
  1.0%	4	-2	-2	-9	-1%	-5.6
COc1ccc(C(=O)C[n+]2cn(C(F)F)c3ccccc32)c(F)c1
  2.8%	-9	-12	21	-11	-11%	7.4
CC(C)C(=O)N1CCN(c2ccc(NC(=S)NC(=O)c3cc4ccccc4o3)cc2)CC1
  4.3%	-12	8	-15	8	4%	-0.4
CC(C)(C)OC(=O)N1CCN(c2ccc([N+](=O)[O-])cc2)CC1
  1.0%	8	-1	-2	-14	4%	-7.5
COc1ccc(Cl)cc1NC(=O)c1cccc(-n2cnnn2)c1
  1.3%	-3	-3	-12	0	·	4.6
O=C(O)CSc1nnnn1-c1ccccc1
  ?	3	0	-3	-2	12%	2.2
N/C(=N\OC(=O)c1cc(Cl)ccc1Cl)c1ccccn1
  -1.9%	2	6	7	1	-22%	4.7
CC/C(O)=C1\C(=O)CCCC1=NCc1nc2ccccc2[nH]1
  -1.5%	-8	9	-5	6	6%	-6.5
O=C(Nc1ccc(F)c(F)c1)c1ccccc1-c1ccccc1
  -0.3%	11	10	-16	-3	1%	-1.2
O=C(Oc1ccc(Br)cc1C(=S)N1CCCCC1)c1cc([N+](=O)[O-])cc([N+](=O)[O-])c1
  2.1%	-2	-4	0	-4	-2%	6.0
